GLA inh pH 4.5 – blocks human alpha-galactosidase A at pH 4.5; purified enzyme, 4-MU-alpha-Gal fluorescence, pH 4.5; activity change, negative = inhibition, % at 105 µM; 230,000 tested, under 10 active; AID 1467; inconclusive = small, poorly fitted or top-dose-only inhibition, or a rising curve; inactive = flat fitted curve, though single readings scatter; no compound was filed as active;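 also: 0% = full activity with enzyme and -100% = basal without enzyme; dose as in the result columns while the protocol names 77 µM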
Rango complex inh – Rango-importin beta binding inhibition; 340,000 compounds, 0.031% hits; AID 540263; Rango CFP/YFP FRET sensor + importin beta, 45 min; Potency, µM (highest dose often 92.2 µM), for inactives: at the top dose inhibition of complex formation; active = rising FRET ratio curve, often small or poorly fitted; inconclusive = mostly compound fluorescence or quenching in the first reads; inactive = flat curves in all reads;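 also: potency is read from the fitted curve at half-maximal effect; 0% = DMSO wells and 100% = buffer wells lacking importin beta; nearly all actives have a fitted effect of over 15% in size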
Target sequence (Q14974 whole entry, looked up): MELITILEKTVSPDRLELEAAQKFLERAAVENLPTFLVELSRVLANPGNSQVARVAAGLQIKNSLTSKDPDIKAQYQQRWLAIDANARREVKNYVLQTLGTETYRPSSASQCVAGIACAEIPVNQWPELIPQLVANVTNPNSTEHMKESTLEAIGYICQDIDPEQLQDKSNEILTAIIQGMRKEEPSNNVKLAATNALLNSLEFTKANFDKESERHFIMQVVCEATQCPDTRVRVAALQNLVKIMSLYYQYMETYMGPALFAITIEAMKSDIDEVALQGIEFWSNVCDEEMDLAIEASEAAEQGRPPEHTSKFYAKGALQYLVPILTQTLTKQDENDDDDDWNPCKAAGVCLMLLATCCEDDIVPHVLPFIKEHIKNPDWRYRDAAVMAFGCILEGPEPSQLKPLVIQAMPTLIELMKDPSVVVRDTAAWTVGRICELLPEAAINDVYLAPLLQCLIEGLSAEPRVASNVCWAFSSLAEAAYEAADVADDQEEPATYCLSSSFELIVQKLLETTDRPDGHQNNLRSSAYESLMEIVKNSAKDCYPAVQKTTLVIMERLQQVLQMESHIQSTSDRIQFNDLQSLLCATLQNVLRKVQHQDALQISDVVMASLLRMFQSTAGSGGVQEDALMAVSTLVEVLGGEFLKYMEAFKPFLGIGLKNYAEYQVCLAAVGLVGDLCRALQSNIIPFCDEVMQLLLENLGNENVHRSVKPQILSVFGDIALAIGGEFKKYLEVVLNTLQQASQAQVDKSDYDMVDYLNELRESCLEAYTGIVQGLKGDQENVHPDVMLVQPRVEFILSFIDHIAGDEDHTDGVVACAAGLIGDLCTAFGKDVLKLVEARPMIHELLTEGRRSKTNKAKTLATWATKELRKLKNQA
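Inhibition scored from the CFP 486 nm/YFP 530 nm FRET ratio 45 min after adding 0.125 microM importin beta to 50 nM Rango biosensor preincubated 5 min with compound (room temperature, PBS with DTT, Tween-20, BSA). No-importin wells as positive control.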
Rango release inh – prevents RanGTP from dissociating the Rango-importin beta complex | O95149+P62826 | Biochemical FRET Rango-importin beta, RanGTP-induced dissociation | Potency, µM (top dose mostly 46.1 µM), without a hit: top-dose activity change, negative = inhibition | 340,000 compounds, 0.071% hits; active means falling FRET ratio curve, often poorly fitted, with flat reads before Ran was added; inconclusive means other falling curves, or compound fluorescence or quenching; inactive means flat or rising ratio curve;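 also: potency is read from the fitted curve at half-maximal effect; % of control where 0% means no effect; nearly all actives have a fitted effect of over 45% in size; -100% = wells without RanGTP and RCC1; the record marks most hits as doubtful in a second field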
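Two FRET readings bracket the reaction: one 5 min after compound meets Rango–importin beta, another 45 min after RanGTP-RCC1 (0.6 uM Ran, 0.2 uM RCC1, 2 mM GTP) is added. Only the second defines inhibition.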
miR-21 reporter – miR-21 reporter, rising signal | HeLa miR-21 FLuc reporter, luciferase, 48 h | Potency, µM (series often up to 38.3 µM), inactives show at the highest dose reporter change, positive = more light | 340,000 tested, under 10 active; active = well fitted rising curve with a large enough effect; inconclusive = small, poorly fitted or top-dose-only effect; inactive = no such curve, though single readings can be large or run the other way;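 also: % of control where 0% means no effect; miR-21 action dims this reporter so a rising signal means less miR-21 action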
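Compounds were titrated across several concentrations (up to approximately 40 uM) and incubated 48 hours with HeLa miR-21-FLuc reporter cells (miR-21 target sequence downstream of FLuc, endogenous miR-21). Readout was firefly luciferase luminescence after lytic detection reagent.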
An asterisk follows results filed as active; ? = inconclusive; / = not tested or not shown; & = joins results of further samples. Not all compounds are listed; count on the stated rates, not on these rows.

GLA inh pH 4.5,Rango complex inh,Rango release inh,miR-21 reporter,structure
3,2.0%,3%,-1%,COC(=O)c1ccc(C2CC(=O)NC3=C2C(=O)CCC3)cc1 (stereo not given)
4,-3.2%,1%,-29%,CC(C)(C)c1csc(Sc2ncccc2[N+](=O)[O-])n1
-4,-0.8%,-8%,-10%,Cc1ccccc1Cn1c2ccccc2c2cn[nH]c(=O)c21
/,2.4%,7%,-34%,Cc1noc(NS(=O)(=O)c2ccc(NC(=O)c3oc4ccc(Cl)cc4c3C)cc2)c1C
/,3.4%,15%,/,O=C(c1ccncc1)N1CCN(S(=O)(=O)c2cccc(Cl)c2)CC1
/,-0.7%,12%,/,Nc1nc(Nc2ccccc2)nc2c1ncn2[C@@H]1O[C@H](CO)[C@@H](O)[C@H]1O
-2,?,?,-2%,COC(=O)c1ccc(-c2nc(O)c(C)s2)cc1
6,0.5%,3%,-1%,COc1ccc(S(=O)(=O)N2CCOCC2)cc1NC(=O)COC(=O)C1=COCCO1
/,1.0%,9%,-20%,CCc1ccc(C2=NN(C(=O)CCC(=O)O)C(c3cccs3)C2)cc1 (stereo not given)
/,5.3%,-20%,-2%,CCOP(=O)(c1ccc(N(C)C)cc1)C(O)c1ccccc1F (stereo not given)
-6,-3.3%,-10%,-23%,O=C(NC1CC1)C1=C[C@H](c2ccc(C(F)(F)F)cc2)C[C@H](OCc2ccc(CO)cc2)O1
3,-1.0%,-5%,0%,O=[N+]([O-])C1=CC=C2C(=NC3(CCCCC3)N2O)C1=NC1CCCCC1

Further records:
GLA inh pH 4.5,Rango complex inh,Rango release inh,miR-21 reporter,structure
/,-2.8%,8%,2%,COc1ccc(C(=O)NNC(=O)c2ccc3ccccc3c2O)cc1
9,1.1%,8%,-1%,O=C(Cc1ccccc1)O/N=C1\CCCc2ccccc21
-1,-2.0%,-14%,-5%,Cc1ccc2cc(CN(Cc3nnnn3Cc3ccco3)CC3CCCO3)c(=O)[nH]c2c1C (stereo not given)
-6,-0.5%,1%,-15%,Cc1ccc(Cl)cc1NC(=O)c1ocnc1C
-9,6.9%,-14%,-1%,CCCSc1cc(N2CCN(C)CC2)nc(-c2ccc(OC)cc2)n1
/,-2.7%,9%,/,CCOc1cc(C(=O)Nc2ccc(S(=O)(=O)N3CCCCC3)cc2)ccc1OCC(=O)N1CCOCC1
/,?,?,-3%,Nc1ccc(-c2c3ccc(=O)cc-3oc3cc(O)ccc23)cc1C(=O)O
/,-3.3%,-16%,-2%&3%,COc1ccc(CNC(=O)CN2C(=O)COc3ccc(S(=O)(=O)N4CCOCC4)cc32)cc1
-3,-0.6%,-4%,4%,Cc1cc(C(=O)NNC(=O)CCN2CCN(c3ccccc3)CC2)c2ccccc2n1
2,4.5%,-10%,-1%,OCCNCC1(O)C2CC3CC(C2)CC1C3 (stereo not given)
/,2.8%,0%,1%,CC(=O)c1ccc(S(=O)(=O)N2CCc3ccccc3C2)cc1
-5,3.8%,-1%,-12%,CCN(CC)S(=O)(=O)c1cccc(C(=O)Nc2ccccc2C(=O)N2CCOCC2)c1

(cont.)
GLA inh pH 4.5,Rango complex inh,Rango release inh,miR-21 reporter,structure
/,2.5%,13%,/,Cc1cc(NC(=O)COC(=O)[C@H](Cc2ccccc2)NC(=O)c2ccco2)no1
8,-0.6%,-14%,0%,CCOc1ccc(NC(=O)C2CCN(C(=O)NCc3ccccc3)CC2)cc1
/,-1.2%,-5%,/,CN(C(=O)COC(=O)c1ccccc1Nc1ccccc1)c1c(N)n(Cc2ccccc2)c(=O)[nH]c1=O
4,-0.8%,9%,-2%,CC(C(=O)N1CCC(C(N)=O)CC1)N(c1ccc(Oc2ccccc2)cc1)S(C)(=O)=O (stereo not given)
13,-3.9%,-2%,-1%,CSc1sc(-c2ccnc(SCCS(C)(=O)=O)n2)c(-c2ccccc2)c1C#N
-12,-0.2%,-2%,0%,COc1ccc(NC(=O)COC(=O)Cc2ccc(-c3ccccc3)cc2)c(OC)c1
0,-1.1%,1%,-2%,O=C(CSc1nc(-c2ccccc2)cc(C(F)(F)F)n1)NCc1cccs1
/,-1.0%,1%,0%,O=C(N/N=C/c1ccc(O)cc1)c1ccncc1
/,-2.1%,-8%,-9%,CCCCC(=O)N1CCN(c2nc3ccc(Br)cc3s2)CC1
/,3.3%,-1%,/,CCN(CC)c1ccc(S(=O)(=O)N2CCOCC2)cc1NC(=O)CSc1ccccc1
5,0.5%,-9%,24%,CCOc1ccc(NC(=O)Nc2cc(OCC(F)(F)F)cc(OCC(F)(F)F)c2)cc1
/,-3.1%,27%,5%,Cc1cccc(CC(C)NC(=O)c2oc3c(F)cccc3c2C)n1 (stereo not given)

Continuation:
GLA inh pH 4.5,Rango complex inh,Rango release inh,miR-21 reporter,structure
-6,0.0%,3%,3%,COc1cc(/C=C/C(=O)OCC(=O)Nc2ccc(C)cc2[N+](=O)[O-])ccc1O
-22,0.2%,1%,1%,C=CCN1C(=O)/C(=C\c2ccco2)C(C(=O)OC)=C1C
/,?,?,/,COc1ccc(C2CC(c3ccccc3Br)=NN2c2ccc(S(N)(=O)=O)cc2)cc1 (stereo not given)
-4,-1.4%,13%,-2%,Cc1cccc(OCC(=O)NNC(=O)c2cccs2)c1
/,0.1%,9%,-17%,CCC(=O)NCc1ccc(-c2nc3ncccc3o2)cc1
/,0.1%,-9%,-9%,COc1cccc(-c2ccc(NC(=O)C3CCCN(Cc4cc(C)[nH]n4)C3)cc2)c1 (stereo not given)
/,-2.7%,0%,2%,COC(=O)c1ccc(C2C(C(=O)c3cc4ccccc4o3)=C(O)C(=O)N2CCN2CCOCC2)cc1 (stereo not given)
/,-1.3%,1%,-43%,Cn1cccc1C(=O)NNC(=O)COc1ccccc1F
-3,4.0%,1%,-6%,CCN(CC)CCN1C(=O)c2oc3ccccc3c(=O)c2C1c1ccc(F)cc1 (stereo not given)
7,-0.4%,10%,0%,O=C(Cc1ccc(Cl)cc1)N/N=C/c1ccccc1
5,5.3%,5%,-8%,FC(F)(F)c1cccc(Cc2noc(CN3CCCC3)n2)c1
-4,?,?,0%,O=C1/C(=C\c2ccco2)CCC/C1=C\c1ccco1

Exported field by field: four of the compounds above.
CCC(=O)NCc1ccc(-c2nc3ncccc3o2)cc1
  GLA inh pH 4.5: / | Rango complex inh: 0.1% | Rango release inh: 9% | miR-21 reporter: -17%
COc1cccc(-c2ccc(NC(=O)C3CCCN(Cc4cc(C)[nH]n4)C3)cc2)c1 (stereo not given)
  GLA inh pH 4.5: / | Rango complex inh: 0.1% | Rango release inh: -9% | miR-21 reporter: -9%
COC(=O)c1ccc(C2C(C(=O)c3cc4ccccc4o3)=C(O)C(=O)N2CCN2CCOCC2)cc1 (stereo not given)
  GLA inh pH 4.5: / | Rango complex inh: -2.7% | Rango release inh: 0% | miR-21 reporter: 2%
Cn1cccc1C(=O)NNC(=O)COc1ccccc1F
  GLA inh pH 4.5: / | Rango complex inh: -1.3% | Rango release inh: 1% | miR-21 reporter: -43%

The list continues:
GLA inh pH 4.5,Rango complex inh,Rango release inh,miR-21 reporter,structure
/,0.3%,-20%,9%,CCOc1ccc(N/C=C/C(=O)c2cc(OC)c(OC)c(OC)c2)cc1
-17,-0.8%,14%,8%,CCOC(=O)CC(NC(=O)c1cccc2c1C(=O)N(Cc1cccnc1)C2)c1ccc(OC(C)C)cc1 (stereo not given)
6,-0.5%,7%,-6%,O=C(c1cccs1)N1CCN(Cc2nc3ccccc3c(=O)[nH]2)CC1
/,-3.1%,-1%,/,CCCCCCCC(=O)O
/,0.8%,-7%,16%,COc1ccccc1N(Cc1ccccc1)S(=O)(=O)c1cccc(C(=O)Nc2cccc(C)n2)c1
1,-4.6%,-2%,-2%,O=C(Nc1ccccc1)c1ccc(Br)c(S(=O)(=O)Nc2cccnc2)c1
11,?,?,-1%,CCOC(=O)COc1ccc2c(C#N)c3ccccn3c2c1
-3,-1.4%,7%,8%,CC1(C)Cc2cccc(OCC(=O)Nc3nccs3)c2O1
8,0.5%,-16%,-10%,O=C1c2ccccc2C(=O)N1CC(O)COCc1ccccc1 (stereo not given)
1,-3.6%,7%,-33%,C/C(=N\NC(=O)COc1ccc(C(C)(C)C)cc1)c1cc2ccccc2o1
/,0.3%,9%,/,CN(CC(=O)Nc1ccc(Cl)cc1)C(=O)CNC(=O)c1ccc2c(c1)OCO2
/,9.2%,-5%,-4%,C=CCn1c(CCNC(=O)c2ccco2)nc2ccccc21

Other compounds.
GLA inh pH 4.5,Rango complex inh,Rango release inh,miR-21 reporter,structure
3,/,/,1%,Cn1c(SCC(=O)Nc2cc(=O)n(C)c(=O)n2C)nnc1-c1cccs1
/,1.4%,11%,-1%,CCOc1ccc(-n2ccc(=O)c(C(=O)O)n2)cc1
3,-1.4%,-6%,-2%,CC(C)c1nc(N2CCN(C(=O)c3ccccc3)CC2)c(C#N)c2c1COC(C)(C)C2
-8,0.2%,2%,19%,NS(=O)(=O)c1ccc(NC(=S)Nc2ccn(Cc3cccc4ccccc34)n2)cc1
8,?,-14%,-9%,COc1cccc(-c2ccc(C#N)c(SCC(=O)NCc3ccco3)n2)c1
/,0.2%,6%,12%,CCN(CC)CCC(=O)N1c2ccccc2CCc2ccc(NC(=O)OC)cc21
-13,3.9%,14%,6%,CCOc1ccccc1Nc1nnc(SCC(=O)Nc2cccc(S(=O)(=O)NC3=NCCCCC3)c2)s1
0,-2.2%,16%,1%,Cc1ccc(C(=O)O)cc1NC(=O)CSc1ncnc2sc3c(c12)CCC3
/,-3.0%,-13%,-4%,O=C(NCc1ccc(Cl)cc1)C(=O)NCC1OCCN1S(=O)(=O)c1cc(F)ccc1F (stereo not given)
0,-3.5%,-11%,0%,O=C(Nc1nncs1)c1ccccc1NS(=O)(=O)c1cccs1
2,-0.4%,4%,1%,CC(=O)OCCn1c(=O)c2cc3c(=O)n(CCOC(C)=O)c(=O)c3cc2c1=O
/,0.1%,-28%,15%,CCC(C)CCN1C(Nc2ccccc2)=NC[C@@H]1Cc1ccccc1 (stereo not given in full)

Going on with the list:
GLA inh pH 4.5,Rango complex inh,Rango release inh,miR-21 reporter,structure
/,-2.2%,6%,/,Cc1ccc(NC(=O)COC(=O)c2ccc(C)c(S(=O)(=O)N3CCOCC3)c2)cc1
3,3.9%,7%,-6%,CCOC(=O)c1c(-c2ccc(F)cc2)csc1NC(=O)C1CC=CCC1C(=O)O (stereo not given)
-9,1.5%,-13%,0%,COc1ccc(-c2cc(C(=O)N3CCN(Cc4ccccc4)CC3)no2)cc1OC
/,3.4%,-12%,4%&-1%,COc1ccccc1N1CCN(C(=O)CCS(=O)(=O)c2ccc3c(c2)oc(=O)n3C)CC1
-13,0.6%,0%,-4%,O=C(NCc1ccccc1)c1c[nH]c2ccc(S(=O)(=O)Nc3ccc4c(c3)OCCO4)cc2c1=O
/,-0.1%,-6%,-8%,CCOc1ccccc1-c1noc(CCCC(=O)NC2CCCCC2)n1
7,-2.8%,1%,-5%,O=C1CCC(=O)N1CNc1ccccn1
/,0.7%,2%,/,Cn1c(-c2ccsc2)c(-c2cccs2)c2cc(-c3cccc4[nH]ccc34)ccc21
/,-0.1%,1%,1%,CCN(C(=O)COC(=O)Cc1c[nH]c2ccccc12)C1CCS(=O)(=O)C1 (stereo not given)
8,?,0%,-3%,COc1ccccc1N1CCN(CC(=O)N(CC(C)C)c2c(N)n(CC(C)C)c(=O)[nH]c2=O)CC1
/,0.1%,36%,-3%,CN(C)S(=O)(=O)c1ccc(C(=O)OCCc2ccccc2)cc1
/,0.4%,0%,/,c1ccc2n[nH]nc2c1

The list goes on.
GLA inh pH 4.5,Rango complex inh,Rango release inh,miR-21 reporter,structure
-1,0.5%,0%,0%,COc1ccccc1/C=C1\SC(=S)N(Nc2nc(C)cc(C)n2)C1=O
/,-0.4%,-1%,6%,Cc1c(Cl)cccc1NC(=O)CCS(=O)(=O)c1cccc2nonc12
-2,1.1%,26%,-3%,CCOC(=O)c1c[nH]n(-c2ccccc2)c1=O
/,?,-15%,-3%,O=C(Nc1ccnn1C1CCN(C(=O)c2ccc(F)cc2)CC1)C1CCOC1 (stereo not given)
/,?,?,0%,COc1ccc(OC)c(/C=N\NC(=O)c2cc3c(ccc4ccccc43)o2)c1
3,-0.9%,2%,3%,Cc1nc2ccccc2n1S(=O)(=O)c1ccc(Br)cc1
/,0.0%,-11%,-4%,COc1ccc(N2C(=O)c3cc4ccccc4cc3C2=O)cc1
/,?,?,0%,CC(C(=O)O)n1c2ccccc2c2cnn(C)c(=O)c21 (stereo not given)
